D2 ag: Beta-Arrestin HTS for Positive Allosteric Modulators of the Human D2 Dopamine Receptor: Agonists. D(2) dopamine receptor (Homo sapiens), P14416. DiscoveRx PathHunter D2 beta-arrestin, luminescence, 90 min; 100% = 57 uM dopamine signal. activation, % (concentration not given with the values). 360,000 tested, 0.084% active. AID 624465, 2012; in the data active = activation above about 40%; inconclusive = about 15% to 40%; inactive = below about 15%; note: compound concentration not given in the record; the text of the record calls up to 30% inactive
Target sequence (P14416 whole entry, looked up): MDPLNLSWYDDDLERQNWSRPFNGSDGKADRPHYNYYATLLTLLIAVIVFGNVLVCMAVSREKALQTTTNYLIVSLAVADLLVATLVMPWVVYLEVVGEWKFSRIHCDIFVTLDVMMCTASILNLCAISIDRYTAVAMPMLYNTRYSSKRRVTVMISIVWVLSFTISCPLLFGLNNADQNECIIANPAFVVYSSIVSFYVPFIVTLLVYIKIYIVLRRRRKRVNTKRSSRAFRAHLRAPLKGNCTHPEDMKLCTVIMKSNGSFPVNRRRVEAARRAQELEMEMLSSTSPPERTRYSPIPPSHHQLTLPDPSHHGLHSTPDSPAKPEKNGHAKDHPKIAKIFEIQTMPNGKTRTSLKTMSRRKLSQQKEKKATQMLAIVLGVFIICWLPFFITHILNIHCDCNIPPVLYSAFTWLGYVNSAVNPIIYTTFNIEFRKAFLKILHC
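DiscoveRx PathHunter D2 beta-arrestin cells (2,100/well) attached overnight, then compound-stimulated 90 min at 37 C in HBSS/10 mM HEPES/0.1% Tween-20 buffer; beta-galactosidase complementation read by luminescence after 1 h at ambient temperature. Dopamine 57 uM final (EC100) as control.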
TRPML1 inh: qHTS for Inhibitors of the Human Mucolipin Transient Receptor Potential 1 (TRPML1) | Mucolipin-1 (Homo sapiens), Q9GZU1 | TRPML1-inducible cells, Ca2+ dye fluorescence, FDSS; stronger effect = lower value; inhibition of EC80 agonist-evoked calcium signal | activity change, negative = inhibition, % (concentration not given with the values) | 390,000 tested, 0.02% active | AID 624415, 2012; in the data active means activity change below about -50%; inconclusive means about -30% to -50%; inactive means above about -30%;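 note: stimulus is agonist 54-4 at its EC80 concentration; % is set by controls: 0 for no effect and ±100 for the full control effect; compound concentration not given in the record; the text of the record puts the active cut at -80%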
Target sequence (Q9GZU1 whole entry, looked up): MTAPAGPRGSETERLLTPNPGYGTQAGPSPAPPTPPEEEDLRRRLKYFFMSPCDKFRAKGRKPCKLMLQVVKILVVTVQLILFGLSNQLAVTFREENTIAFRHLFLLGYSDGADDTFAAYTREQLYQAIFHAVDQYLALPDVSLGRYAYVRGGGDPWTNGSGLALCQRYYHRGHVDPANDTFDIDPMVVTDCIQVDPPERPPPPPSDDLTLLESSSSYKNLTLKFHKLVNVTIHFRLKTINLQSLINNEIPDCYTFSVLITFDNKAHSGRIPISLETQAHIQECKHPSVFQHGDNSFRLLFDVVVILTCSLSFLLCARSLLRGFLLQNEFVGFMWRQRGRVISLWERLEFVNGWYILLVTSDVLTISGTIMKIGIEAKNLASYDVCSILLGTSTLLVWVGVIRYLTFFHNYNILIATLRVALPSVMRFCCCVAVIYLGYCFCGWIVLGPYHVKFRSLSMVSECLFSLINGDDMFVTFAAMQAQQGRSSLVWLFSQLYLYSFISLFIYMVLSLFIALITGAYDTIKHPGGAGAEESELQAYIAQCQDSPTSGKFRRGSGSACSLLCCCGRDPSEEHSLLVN
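Calcium fluorescence in TRPML1-DL cells induced overnight with Tet: a 110 s read after compound pin addition, then a 110 s antagonist read after challenge with 54-4 at 4 uM final (EC80).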
CtBP-E1A inh: qHTS Assay for Inhibitors of the CtBP/E1A Interaction. AID 651724, 2012. AlphaScreen GST-E1A/His-CtBP binding, 1536-well; stronger effect = lower value; control for the full effect not named in the record. 340,000 tested, 0.49% active. CtBP / adenovirus E1A interaction (AlphaScreen). activity change, % (concentration not given with the values); in the data active means activity change below about -65%; inconclusive means about -30% to -65%; inactive means above about -30%; note: % is set by controls: 0 for no effect and ±100 for the full control effect
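Homogeneous bead-based format: GST-tagged E1A captured on glutathione donor beads, His-tagged CtBP on nickel acceptor beads; compounds precede bead addition by 2 h at 37 °C.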
Six1-Eya2 blk: qHTS Assay for Inhibitors of the Six1/Eya2 Interaction; AlphaScreen GST-Six1/His-Eya2 binding, biochemical; stronger effect = lower value; control for the full effect not named in the record; activity change, % (concentration not given with the values); 360,000 tested, 0.56% active; AID 651725, 2012; in the data active = activity change below about -65%; inconclusive = about -30% to -65%; inactive = above about -30%; note: % is set by controls: 0 for no effect and ±100 for the full control effect
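AlphaScreen with GST-Six1 and His-Eya2 (5X mix: 250 nM and 500 nM), glutathione donor and nickel acceptor beads; buffer 50 mM Tris pH 8.0, 300 mM NaCl, 1 mM TCEP; 1 h at 37 C in the dark.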
PINK1 expr mod: A Quantitative High throughput Screen to Identify Chemical Modulators of PINK1 Expression; PINK1 immunofluorescence, high-content cytometry, 24 h; Potency, µM (series often up to 76.6 µM), for inactives: top-dose activation (PINK1 increase), most hits filed as activators; 410,000 tested, 0.2% active; AID 624263, 2012; active = well fitted activation curve with a large enough effect; inconclusive = small, poorly fitted or top-dose-only effect; inactive = flat fitted curve, though single readings scatter; cell line not stated here;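 note: potency is the fitted concentration of half-maximal effect; % of control where 0% means no effect; nearly all actives have a fitted effect of over 65% in size; a mitochondrial uncoupler was the plate control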
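PINK1 protein, normally rapidly degraded, was detected by immunofluorescence after 24 hour compound treatment of a stable cell line. Titration data (5 concentrations) came from laser-scanning cytometry, with CCCP-treated wells as controls.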
TRPML1 ag: qHTS for Agonists of the Human Mucolipin Transient Receptor Potential 1 (TRPML1); Mucolipin-1 (Homo sapiens), Q9GZU1; TRPML1-expressing cells, Ca2+ dye fluorescence, FDSS; host cell line not named in the record; reference of the full effect not given here; activation, % (test concentration not listed); 410,000 tested, 0.12% active; AID 624414, 2012; in the data active = activation above about 50%; inconclusive = about 30% to 50%; inactive = below about 30%; note: 0% is about no effect; the text of the record puts the active cut at 80%
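Calcium fluorescence on an FDSS kinetic reader gave the read-out. Tet-induced TRPML1-DL cells were plated overnight, dye-loaded (Ca8 with quencher, 45-90 min, room temperature, dark), then read 110 s after compound addition, and again 110 s after 4uM final 54-4 (EC80).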
An asterisk follows results filed as active; ? = inconclusive; / = not tested or not shown; & = joins results of further samples; [ ] = remark or other dose.

nr	smiles	D2 ag	TRPML1 inh	CtBP-E1A inh	Six1-Eya2 blk	PINK1 expr mod	TRPML1 ag
1	Cc1ccc(NS(=O)(=O)c2ccc(C(=O)NCCCN3CCOCC3)cc2)cc1	-4.3	15	4	3	0.5%	-0.2
2	COc1ccc(Cl)cc1S(=O)(=O)N1CCC(C(=O)NCC2CCCO2)CC1 (configuration not stated)	-4.9	-7	17	4	2.0%	0.3
3	Cc1c(N=C2Nc3cccc4cccc2c34)c(=O)n(-c2ccccc2)n1C	4.2&-12	18&-2	9&7	8&0	13%	2.8&8.8
4	COc1cc(OC)c(OC)cc1CN(C)CC1CCCN(CCc2ccccc2F)C1 (configuration not stated)	-0.4	-5	/	2	-0.3%	0.3
5	C/C(=N\NC(=O)c1nn(C)c(C)c1Br)c1cccc(NC(=O)c2ccc(F)cc2)c1	3.5	14	3	-5	3.8%	-0.1
6	Cc1ccc(-c2nc3ccccc3c(=O)n2CCN2CCOCC2)cc1	-2.2	-9	-7	2	-0.9%	-0.1
7	Fc1ccc(N2CCN(C(c3cccs3)c3nnnn3C3CCCC3)CC2)cc1 (configuration not stated)	-2.0	-3	-6	-11	/	10
8	COc1ccc(CSc2nnc(C)s2)cc1F	-1.0	-4	-2	3	-0.7%	-0.7
9	O=C(Nc1ccc2c(c1)OCCO2)C1CC(O)CN1C(=O)Nc1ccccc1 (configuration not stated)	-4.5	1	-20	4	-1.5%	1.1
10	CC(C)CCNC(=O)c1onc(CSc2ccc(F)c(F)c2)c1C(=O)NCCC(C)C	-3.6	47	21	18	18%	0.7
11	O=C(CCCSc1nc2ccccc2[nH]1)Nc1ccccc1	3.1	0	-6	-1	1.3%	2.6
12	Cc1cc(C)c2[nH]c(=O)c(C(c3nnnn3Cc3ccc4c(c3)OCO4)N3CCC(C)CC3)cc2c1 (configuration not stated)	-0.9	-9	9	5	3.8%	-0.3
13	CC(C)CN1CC(C)C(=O)NC1=S (configuration not stated)	0.1	2	6	-8	-2.1%	0.6
14	O=C(NC1=NCCS1)c1ccc(OCC2CCCO2)cc1 (configuration not stated)	1.4	-3	0	3	0.0%	1.0
15	COc1ccc(-n2nc(C(=O)NCC(=O)N3CCN(c4ccccn4)CC3)c3ccccc3c2=O)cc1Cl	0.7	-7	12	2	2.7%	-0.5
16	CCCn1c(O)c(C=Nc2ccccc2)sc1=S	5.2	5	/	7	4.5%	1.1
17	C#CCOCCOCCOCCNc1nc(N2CCN(C(=O)CCCCCCCCCCNC(=O)[C@@H](CCC(=O)O)n3cc(CCCCCN)nn3)CC2)nc(N2CCN(C(=O)CCCCCCCCCCNC(=O)[C@H]([C@@H](C)CC)n3cc(CCCCCN)nn3)CC2)n1	1.9	2	-2	2	4.0%	1.7
18	CN1CCN(P(=O)(c2ccccc2)c2nc3ccccc3s2)CC1 (configuration not stated)	-2.4	-3	1	1	-0.3%[38.3 µM]	0.4
19	COc1ccc(C(=O)N/C(=C\c2ccccc2)C(=O)Nc2ccccc2C(=O)O)cc1	-2.8	-3	-5	-3	2.6%	-0.2
20	O=C(Nc1cccc(S(=O)(=O)N2CCCC2)c1)c1ccccc1OC(F)F	-2.2	28	-1	1	-0.6%	0.1
21	CCOC(=O)[C@@H]1[C@H]2COc3ccc(Br)cc3[C@@H]2N2C(=O)N(c3ccc(OC)cc3)C(=O)[C@]12C	0.4	15	/	14	6.1%	0.0
22	CCOc1c(CNCCSc2nnnn2C)cccc1OC	/	7	/	/	-0.5%	-0.4
23	COCCNC(=O)[C@H]1N2C(=O)c3ccccc3C2SC1(C)C (some centres not stated)	-6.3	/	1	-13	0.8%	/
24	Cc1cc2nc(CCN3CCOCC3)n(S(=O)(=O)c3ccc(C(C)(C)C)cc3)c2cc1C	-1.7	9	-4	-2	7.4%[38.3 µM]	2.0
25	CCc1ccccc1NC(=O)Cn1c2ncccc2c(=O)n1-c1ccccc1	/	-13	/	/	2.6%	5.2
26	Cc1ccc(C(=O)NCC(=O)N2CCN(S(=O)(=O)c3cccs3)CC2)s1	-6.7	-8	0	-7	1.2%	-1.0
27	C=CCOc1ccc(CNn2nnnc2N)cc1	1.3	13	2	-7	-0.7%	0.5
28	CCOc1ccccc1N(CC)C(=O)c1ccc2c(=O)n3c(nc2c1)CCCCC3	0.7	59&23	-11	4	0.5%&0.2%	-0.6&2.1
29	Cc1nc2cc(-c3cccc(F)c3)nn2c(C)c1CCC(=O)N1CCN(c2ccccn2)CC1	-0.7	11	3	5	5.7%	-0.5
30	O=C(CSc1nnnn1C1CC1)Nc1ccc(S(=O)(=O)N2CCOCC2)cc1	-1.7	-2	2	4	15%	0.8

(cont.)
nr	smiles	D2 ag	TRPML1 inh	CtBP-E1A inh	Six1-Eya2 blk	PINK1 expr mod	TRPML1 ag
31	Cc1cccc(CNC(=O)Cn2nc(C)c3nn(-c4ccc(Cl)cc4)c(C)c3c2=O)c1	/	-4	/	/	3.0%	1.1
32	CCSc1nnc([C@H](Cc2ccccc2)NC(=O)OC(C)(C)C)o1	-2.6	-6	2	8	15%[38.3 µM]	-0.7
33	OCCC1CN(Cc2ccc3c(c2)CCO3)CCN1Cc1ccc(F)cc1 (configuration not stated)	-2.3	19	-7	-2	-1.2%	0.6
34	O=C(c1ccc2c(c1)OCCO2)N1CCN(c2ncc(C(F)(F)F)cc2Cl)CC1	-3.4	21	6	-3	-3.0%	0.3
35	CSc1ncccc1C(=O)N1CCC1(C)C(=O)NC(C)C (configuration not stated)	-2.9	/	5	-1	0.5%	-0.4
36	Cc1ccc(C(=O)CSc2nc(-c3ccccc3)nc3c2CCCC3)c(C)c1	/	9	/	/	?	0.5
37	N#CC1(NC(=O)COC(=O)c2cc(O)c3ccccc3c2O)CCCCC1	?	4	-14	-6	0.7%	0.3
38	Nc1ccc(Sc2nc3ccccc3[nH]2)cc1	-5.8	-16	-1	0	2.2%	-0.1
39	CCCCNC(=O)CNC(=O)c1nn(-c2ccc(OC)c(Cl)c2)c(=O)c2ccccc12	-2.4	-18	/	1	3.4%	2.2
40	Cc1ccc(N(C)S(=O)(=O)c2ccc3c(c2)C(C)(C)C(=O)N3C)cc1C	/	15	/	/	0.3%	1.1
41	O=C(NNC(=O)c1ccc[nH]1)c1cc(Cl)cc(Cl)c1	-3.0	23	6	0	-0.5%	1.0
42	COc1ccc(CCNC(=O)C/C(C)=N/NC(=O)c2cnccn2)cc1	-4.4	-2	-11	2	-1.4%	1.1
43	CCOc1nc(Nc2ccc(OC)c(Cl)c2)nc(N2CCN(c3ccc(OC)cc3)CC2)n1	-3.2	4	?	?	2.9%	0.1
44	CCOC(=O)c1cc(CC)sc1NC(=O)CC1Sc2ccc(C(F)(F)F)cc2NC1=O (configuration not stated)	-3.3	-11	8	6	3.5%	-0.1
45	COc1ccc(C(=O)CSc2nc3ncccc3[nH]2)cc1OC	0.6	5	-1	-2	0.0%	0.8
46	COc1ccc(Sc2nc3ccccc3n3c(C(F)(F)F)nnc23)cc1	-2.7	7	-7	-2	?	-0.4
47	Cc1ccc(C(C)NC(=O)c2cc(C)oc2C)cc1 (configuration not stated)	-2.5	5	-10	-9	1.0%	0.5
48	O=C(CNS(=O)(=O)c1ccccc1)Nc1cccc([N+](=O)[O-])c1	-2.8	-4	4	6	-1.2%	4.4
49	CCC(C)(C)NC(=O)C(c1ccc(O)cc1)N(CCOC)C(=O)CCC(=O)Nc1nccs1 (configuration not stated)	-7.4	9	2	2	1.4%	1.0
50	COc1ccc(-c2c[n+]3c(n2-c2c(C)n(C)n(-c4ccccc4)c2=O)CCCCC3)cc1	0.6	10	0	16	0.2%	-0.8
51	O=C(Cc1ccccc1)N/N=C/c1ccc(S(=O)(=O)O)o1	-4.0	-13	-1	0	1.2%	1.0
52	CC(=O)c1ccc(NC(=O)c2noc3c2CSc2ccccc2-3)cc1	/	4	/	/	1.5%	0.5
53	Cc1nnc(SCC(=O)N(CCC#N)c2ccc3c(c2)OCCO3)s1	-0.3	27	2	7	-0.4%	0.1
54	COC(=O)c1cc2c(ccn2-c2ccc(F)cc2)n1CC(C)C	-2.8	-10	-22	-23	4.3%	1.0
55	CC(CCC(=O)O)C1CC[C@H]2C3CCC4CC(=O)CCC4(C)[C@H]3CC(=O)C12C (some centres not stated)	3.5	-3	-4	0	4.2%	1.6
56	Cc1cccc(C)c1OC1(c2ccccc2)OC(=O)c2ccccc21 (configuration not stated)	-2.1	10	17	13	7.0%[38.3 µM]	3.3
57	O=c1cc(-c2ccccc2)nc(N2CCN(Cc3ccccc3)CC2)[nH]1	-3.4	-14	4	-4	-1.0%	0.2
58	Cc1nn(Cc2ccc(Cl)cc2)c(C)c1NC(=O)c1noc2c1CCc1ccccc1-2	4.7	17&-10	-6	-11	1.6%&1.2%	-0.9&0.3
59	CC(/C=C/c1ccccc1)=N/O	-0.5	-6	4	-1	-0.6%	-0.5
60	CN(C)S(=O)(=O)n1cnc(-c2ccccc2)c1-c1ccccc1	-0.6	4	-5	2	7.4%	0.5

Ordered by SMILES length (highest first): part of the list above
nr	smiles	D2 ag	TRPML1 inh	CtBP-E1A inh	Six1-Eya2 blk	PINK1 expr mod	TRPML1 ag
43	CCOc1nc(Nc2ccc(OC)c(Cl)c2)nc(N2CCN(c3ccc(OC)cc3)CC2)n1	-3.2	4	?	?	2.9%	0.1
52	CC(=O)c1ccc(NC(=O)c2noc3c2CSc2ccccc2-3)cc1	/	4	/	/	1.5%	0.5
60	CN(C)S(=O)(=O)n1cnc(-c2ccccc2)c1-c1ccccc1	-0.6	4	-5	2	7.4%	0.5
54	COC(=O)c1cc2c(ccn2-c2ccc(F)cc2)n1CC(C)C	-2.8	-10	-22	-23	4.3%	1.0

Later entries.
nr	smiles	D2 ag	TRPML1 inh	CtBP-E1A inh	Six1-Eya2 blk	PINK1 expr mod	TRPML1 ag
61	Cc1c(C2(O)C(=O)Nc3ccc(F)cc32)c(=O)n(-c2ccccc2)n1C (configuration not stated)	0.1	-3	3	-1	-1.4%	-0.8
62	N#C/C(=C/c1ccc(Cl)cc1Cl)c1nc2ccccc2c(=O)[nH]1	/	13	/	/	0.5%	0.8
63	O=C(NCCCN1CCCCCC1)c1ccc(CS(=O)(=O)Cc2ccccc2F)o1	-2.1	-7	-9	11	0.7%	-0.4
64	CC(=O)c1c(C)nn(CCC(=O)O)c1C	0.1	23	2	4	-0.4%	2.2
65	Cc1ccc(NC(=O)C2CCCN(C(=O)c3ccc(Cl)cc3)C2)cc1 (configuration not stated)	7.6	7	/	4	0.0%	1.3
66	Cc1ccc(C2=Nn3c(COc4ccc(Cl)cc4)nnc3SC2CC(=O)O)cc1 (configuration not stated)	-6.8	-10	0	4	6.0%	-1.0

Screening data (PubChem)
